High-throughput results (PubChem)
ugtP null kill = growth inhibition of ugtP-null S. aureus, primary screen, RN4220 ugtP deletion, OD600 | AID 1259309, 2017 | 16 h; some inactives read as strong as hits | 0.54% of 330,000 active | growth inhibition, % (no concentration beside the values);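 active = z-score under -3 and OD600 up to 0.15 on both plates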;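 note: plate controls were untreated wells for no effect and antibiotic for full effect; wells of about 80 µL received 100 nL stock; the first replicate is given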
PrP 5UTR inh = inhibition of PrP 5' UTR reporter expression; cell-based PrP 5' UTR mRNA reporter, plate reader; inhibition, % (concentration not given with the values); 0.35% of 340,000 active; AID 488862, 2010;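 active = every replicate at 50% or more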;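 note: 0 = median of the neutral control wells; tested in H4 reporter cells; numbers are from one replicate; inactives centre near -14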
BJeLR lethal = MLPCN primary cell-based screen for lethality selective to Ras in HRASV12 cells. inhibition, % (concentration not given with the values). BJeLR (HRASV12) viability, CellTiter-Glo ATP luminescence, 48 h; reference of the scale not given here. 0.17% of 300,000 active. AID 1554, 2009;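 active = replicate mean above 50%; inconclusive = above 50% but judged a plate artefact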;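 note: 50 nL library stock added to about 25 µL; numbers are from one replicate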
Bead autofluor = counter-screen for toxin protease inhibitors: compound fluorescence; 3.1% of 360,000 active; AID 624483; compound autofluorescence counterscreen, microsphere flow cytometry; stronger effect = higher value; fluorescence intensity (test concentration not listed);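 active = at least 3 SD above the mean of all compounds, about 16000 in these data; inconclusive = too few beads counted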;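 note: 100 nL of 1 mM stock went into each well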
Sa RN4220 lethal = growth inhibition of S. aureus RN4220, primary screen, OD600; 16 h; inhibition, % (no concentration beside the values); 0.33% of 330,000 active;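 active = z-score of -3 or lower and OD600 up to 0.18 on both plates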;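 note: plate controls were untreated cells for no effect and reference antibiotic for full effect; stock transfer was 100 nL into about 80 µL; one replicate is shown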
Mtb hypoxia rep = PubChem AID 1159583. M. tuberculosis hypoxia-regulated fluorescent reporter, fluorescence. fluorescence inhibition, % (no concentration beside the values). 0.1% of 300,000 active;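 active = 35 to 45% if threefold the growth effect, above 45% if 1.5-fold the growth effect; inactive = the rest, general growth blockers included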;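 note: wells of about 50 µL received 100 nL stock; 0% = vehicle wells and 100% = reference inhibitor wells; whole bacteria with a GFP reporter of the hypoxia response; strong numbers were not always called active; many hits fall short of the cut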
Mtb hypoxia rep growth = recorded beside Mtb hypoxia rep, whose call it bears; growth inhibition, %; measured here: M. tuberculosis growth (absorbance);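 0% = vehicle and 100% = reference antibiotic; read after six days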
Active calls of the source: *; ? = inconclusive; . = no result given; & = joins results of further samples.

SMILES	ugtP null kill	PrP 5UTR inh	BJeLR lethal	Bead autofluor	Sa RN4220 lethal	Mtb hypoxia rep	Mtb hypoxia rep growth
Cc1csc(NC(=O)c2cc(C)on2)n1	3	-58	.	3982	1.9	8	14
Cn1c(=O)c2c(nc(Sc3ncnn3CC(=O)N3CCOCC3)n2C)n(C)c1=O	12	-6	-10	4505	1.3	4	0
CCOC(=O)C1CCCN(C(=O)CCNC(=O)Cn2ccc3ccccc3c2=O)C1 (stereo not drawn)	7	-13	0	3790	1.2	6	8
Cc1cc(-c2ccco2)n(CC(=O)NCCN(C)C)n1	8	2	-1	4296	2.0	6	3
O=C(CCn1c(=O)oc2ccccc21)N1CCN(c2ccccc2F)CC1	2	-22	-9	8883	2.0	-1	9
CSc1nncc(-c2ccccc2)n1	3	-22	-9	4378	0.6	1	-3
O=C1c2ccccc2C(=O)N1CC1CCCO1 (stereo not drawn)	-3	-7	-6	2621	-4.5	.	.
CCCCNc1cc(C(=O)O)cc(S(N)(=O)=O)c1Oc1ccccc1	-7	-17&-15	7	5836	2.1	1	-2
Cc1ccc(NC(=O)c2ccc3ccccc3n2)cc1S(=O)(=O)N1CCOCC1	0	-22	2	2586	7.6	1	8
Cn1cc(CNC(=O)c2sc3cccc(Cl)c3c2Cl)cn1	-8	-19	1	4464	11	18	16
CCCOC(=O)c1ccc(Oc2cn[nH]c2-c2ccc(OCC(=O)NN)cc2O)cc1	6	-8	7	5608	-5.6	2	9
COCCCNc1nc2ccccc2nc1NS(=O)(=O)c1cccc(Cl)c1	-2	-22	1	2962	7.1	-15	2
NCCCCC1CNC(=S)N1CCc1cc(C(F)(F)F)cc(C(F)(F)F)c1 (stereo not drawn)	0	.	.	.	3.6	3	-8
Cc1ccc2c(c1)C(c1ccccc1)N(C(=O)c1cccc([N+](=O)[O-])c1)CC(=O)N2 (stereo not drawn)	-6	-8	1	3716	4.7	5	-3
CCN(Cc1cccc(OC)c1)CC1CCCN(CCc2cccc(OC)c2)C1 (stereo not drawn)	7	-29	-10	5473	2.7	1	8

Single records, as listed above. Values in the order: ugtP null kill | PrP 5UTR inh | BJeLR lethal | Bead autofluor | Sa RN4220 lethal | Mtb hypoxia rep | Mtb hypoxia rep growth
Shown for NCCCCC1CNC(=S)N1CCc1cc(C(F)(F)F)cc(C(F)(F)F)c1 (stereo not drawn) = 0 | . | . | . | 3.6 | 3 | -8
Shown for Cc1cc(-c2ccco2)n(CC(=O)NCCN(C)C)n1 = 8 | 2 | -1 | 4296 | 2.0 | 6 | 3
Shown for O=C(CCn1c(=O)oc2ccccc21)N1CCN(c2ccccc2F)CC1 = 2 | -22 | -9 | 8883 | 2.0 | -1 | 9
Shown for CCCOC(=O)c1ccc(Oc2cn[nH]c2-c2ccc(OCC(=O)NN)cc2O)cc1 = 6 | -8 | 7 | 5608 | -5.6 | 2 | 9

Next structures:
SMILES	ugtP null kill	PrP 5UTR inh	BJeLR lethal	Bead autofluor	Sa RN4220 lethal	Mtb hypoxia rep	Mtb hypoxia rep growth
Cc1cccc(NC(=O)c2ccc(N(C)C3CCCCC3)c([N+](=O)[O-])c2)n1	-7	5	8	8185	17	7	10
CCN(CC(=O)Nc1ccccc1C(F)(F)F)C(=O)c1ccccc1Cc1ccccc1	-11	-14	10	4093	2.0	0	7
COc1ccccc1N1CCN(c2ncnc3sc(C)c(-c4ccccc4)c23)CC1	-6	-4	-9	6022	-0.1	-10	5
Cc1cccc(NC(=O)CSc2nnc(NC(=O)CN3CCCCC3)s2)c1	3	.	-2	.	4.8	0	-2
Cc1ccc2c(=O)[nH]c(Cc3ccccc3C(=O)O)nc2c1	-8	-36	-5	5543	0.8	2	-1
Cc1nc2oc3c(NCC4CCCO4)ncnc3c2c2c1COC(C)(C)C2 (stereo not drawn)	-8	-24	-10	22824*	4.5	14	17
Cn1cccc1/C=C1\SC(=S)N(NC(=O)c2ccc(Cl)cc2)C1=O	-24	-19	.	2196	16	18	0
CC(Oc1ccc(Br)cc1)C(=O)NCC(C)(C)N1CCOCC1 (stereo not drawn)	-1	2	-2	?	1.4	-3	9
CC(C)(C)C1CCC(=NNc2ccc(S(N)(=O)=O)cc2[N+](=O)[O-])CC1 (stereo not drawn)	9	-36	6	2155	-1.6	0	1
COC(=O)[C@@]12CCCCN1[C@H](c1ccc(SC3CCCCC3)cc1)[C@@H]1C(=O)N(C)C(=O)[C@@H]12	.	2	-5	4228	.	.	.
O=C(CN(Cc1ccccc1)C1=NCCS1)c1ccc(Cl)cc1	14	-8	3	1947	2.9	-3	3
CC(C)NOC(=O)c1ccc(Cl)cc1	-2	-15	17	3073	7.6	4	4
COc1cc(/C=N/Nc2nc(=O)[nH]nc2C)cc([N+](=O)[O-])c1O	.	-16	0	3885	.	.	.
O=S(=O)(c1ccc2ccccc2c1)N1CCN(C(=S)Nc2ccc(F)c(Cl)c2)CC1	49	8	9	8261	-6.6	5	9
CN1C(=O)C(=Cc2ccc(N3CCOCC3)c([N+](=O)[O-])c2)C(=O)N(C)C1=O	6	.	-1	.	5.7	4	8
N#C/C(=C/c1cccs1)c1nc2ccccc2[nH]1	0	-66	0	2270	3.1	11	5
COc1ccc(S(=O)(=O)N2CCCCCC2)cc1NC(C)C(=O)Nc1ccc(NC(C)=O)cc1 (stereo not drawn)	1	-5	.	4141	3.8	12	0
CCOc1ccc2nc(NC(=O)C3=NNC(=O)CC3)sc2c1	.	-40	2	4535	.	.	.
CCNC(=S)Nc1cc(OCC)c(N2CCOCC2)cc1OCC	4	-1	1	1948	0.6	1	1
Cc1cccc(C=NNc2ccc3ccccc3n2)c1	-6	.	.	.	-8.7	-11	2
CCOC(=O)c1c(NC(=O)COC(=O)c2ccc(C)s2)sc2c1CC(C)(C)NC2(C)C	-4	-9	-4	5217	3.5	5	1
Nc1nc(-c2ccco2)nn1C(=O)c1ccccc1	-3	-16	7	3256	-15	-1	2
CCCCN(CCCC)CCCNC(=O)Cn1cc2c(n1)-c1c(oc(C(=O)N3CCCC3)c1C)CC2	13	-22	0	4694	0.4	3	-4
O=c1[nH]c(=O)n(Cc2ccccc2)c(O)c1C=NCCN1CCNCC1	-9	-10	-1	8309	0.6	-8	-3
N#CC1=C(N)Oc2cc3c(cc2C1c1ccc(Cl)cc1)OCO3 (stereo not drawn)	-17	-9	-2	12429	2.2	3	4
CN(C)S(=O)(=O)c1cccc(C(=O)N=C2N=C3C=CC(Cl)=CN3Cc3ccccc32)c1	5	-38	-5	4433	5.5	11	2
CCN(CC)C(=O)Cn1cc(S(=O)(=O)CC(=O)NCc2ccc(C)cc2)c2ccccc21	1	-32	1	5528	-0.8	3	-3
O=C(CCC1CCCCC1)Nc1c[nH]c(=O)[nH]c1=O	4	1	0	4006	-0.1	.	.
Cc1ccc(NC(=S)NC2CCCC2)c(C)c1	5	-1	0	3957	2.3	-8	0
CC(=O)C1=C(O)C(=O)N(c2ccccn2)C1c1ccccc1[N+](=O)[O-] (stereo not drawn)	13	-15	-10	3443	0.5	3	8
Cn1cnc2c(cnn2C)c1=N	6	-12	.	3067	3.0	25	10
O=C(NN=Cc1cccc(F)c1)c1c(O)c2ccccc2[nH]c1=O	100*	.	.	.	99*	-2	-9
CC1CCCCN1CCCNC(=O)c1ccc2c(=O)n(CCc3ccccc3)c(=O)[nH]c2c1 (stereo not drawn)	3	-28	0	10919	2.1	13	11
O=C(COc1ccc(Cl)cc1)NNC(=O)c1ccccc1C(=O)O	2	-22	-2	5361	2.4	8	-3
Cc1oc2cc3oc(=O)c(CCC(=O)NCCCN4CCOCC4)c(C)c3cc2c1C	5	-36	-3	5598	1.7	.	.
OCCNC(=S)Nc1ccc2c(c1)OCCO2	8	-10	-6	4551	3.5	7	0
CCN(CC)S(=O)(=O)c1ccc(Cl)c(NC(=O)COC(=O)c2ccc([N+](=O)[O-])o2)c1	-7	-13	-4	4509	0.1	-4	8
CC(CC(=O)Nc1ccccc1[N+](=O)[O-])=NNC(=O)COc1ccccc1C	5	.	.	.	5.0	11	12
COc1cccc(NC(=O)C(c2ccccc2)N2CCN(c3ccccn3)CC2)c1 (stereo not drawn)	1	-38	3	3329	4.8	6	4
O=C(COc1ccccc1)N/N=C/c1cc2c(cc1[N+](=O)[O-])OCO2	.	-36	1	9079	.	.	.
Cc1ccc(NC2CCCN(C(=O)c3cnc4ccccn4c3=O)C2)cc1C (stereo not drawn)	1	3	3	5902	1.9	-10	-1
Cc1ccc(CNC(=O)COC(=O)C2CCC2)cc1	1	-16	.	3959	2.7	6	8
COc1ccc(CN2CCN(Cc3cccc(Oc4ccccc4)c3)CC2)c(OC)c1OC	-2	-17	3	3938	-1.5	11	6
CCOc1ccc(NC(C)C(=O)N/N=C/c2cccs2)cc1 (stereo not drawn)	.	-14	12	1953	.	.	.
O=C(COC(=O)CNC(=O)c1ccc(Br)o1)Nc1ccccc1OC(F)F	5	-19	-2	4397	0.1	11	0
Cc1cccc2cc(C=NNC(=O)c3ccncc3)c(Cl)nc12	7	.	.	.	-1.9	3	7
Cc1oc2c(c1C(=O)O)C(=O)c1ccccc1C2=O	8	-48	-1	4946	13	3	4
CCCN(CC(=O)Nc1ccccc1C)C(=O)/C=C/c1ccc(OCC)c(OC)c1	10	-5	.	3165	5.3	6	1
Cc1occc1-c1nnc(SCC(=O)c2ccc(Cl)cc2)n1C	4	-26	1	4547	0.0	.	.
Cc1nc2ccc(Br)cn2c1C(=O)NN=Cc1ccccc1[N+](=O)[O-]	-1	.	.	.	4.9	-4	-6
Cc1ccc2nc(NC(=O)COC(=O)c3cccnc3)sc2c1	-4	-49	.	8271	0.4	2	-3
Cc1c(C=O)c2cc(OCc3ccccc3)ccc2n1C	3	-40	-6	3457	5.3	15	5
N#Cc1nc(COc2cccc(Cl)c2)oc1NCc1ccncc1	3	-11	17	4786	-2.0	.	.
OCCCNc1ncnc2sc3c(c12)CCN(Cc1ccccc1)C3	0	-3	16	7833	-0.8	5	-4
Cc1ccc(NCC(=O)NN=Cc2cc3ccccc3nc2Cl)cc1	-25	.	.	.	3.2	4	8
COc1cccc(N2CCN(c3ccc4nnc(CCC(=O)Nc5ccccc5OC)n4n3)CC2)c1	2	-11	6	5800	-0.1	3	9
c1ccc(-c2noc(-c3ccc4c(c3)OCO4)n2)cc1	2	9	13	2129	-0.6	-1	5
COc1ccccc1-c1nc(C(N)=O)c2[nH]c(=O)n(-c3cccc(C)c3)c2n1	-10	-9	-3	2466	-5.9	6	5
O=C(NC1CCCC1)C1CCCN(C(=O)Nc2ccccc2)C1 (stereo not drawn)	4	-24	-12	4392	2.7	2	-5
COc1cc(CSc2ncn[nH]2)c(OC)cc1CSc1ncn[nH]1	1	-3	-12	15888	-2.2	-5	-2

Compounds from the list above that contain a COOH group (4):
SMILES	ugtP null kill	PrP 5UTR inh	BJeLR lethal	Bead autofluor	Sa RN4220 lethal	Mtb hypoxia rep	Mtb hypoxia rep growth
CCCCNc1cc(C(=O)O)cc(S(N)(=O)=O)c1Oc1ccccc1	-7	-17&-15	7	5836	2.1	1	-2
Cc1ccc2c(=O)[nH]c(Cc3ccccc3C(=O)O)nc2c1	-8	-36	-5	5543	0.8	2	-1
O=C(COc1ccc(Cl)cc1)NNC(=O)c1ccccc1C(=O)O	2	-22	-2	5361	2.4	8	-3
Cc1oc2c(c1C(=O)O)C(=O)c1ccccc1C2=O	8	-48	-1	4946	13	3	4

The listing continues.
SMILES	ugtP null kill	PrP 5UTR inh	BJeLR lethal	Bead autofluor	Sa RN4220 lethal	Mtb hypoxia rep	Mtb hypoxia rep growth
CCC(C)NS(=O)(=O)c1ccc(OCC(=O)N2CCC(C)CC2)cc1 (stereo not drawn)	3	-5	-11	10162	2.0	12	6
CC(C)C[C@H](NC(=O)c1nc[nH]c1C(=O)NCC(=O)OCc1ccccc1)C(=O)OCc1ccccc1	.	-27	9	4327	.	.	.
CSCCC(N=C(NS(=O)(=O)c1ccc(C)cc1)c1ccccc1)C(=O)O (stereo not drawn)	12	-21	-7	4588	3.2	-1	0
COc1ccc(C2CC(c3ccc(Cl)cc3)=NN2C(C)=O)cc1 (stereo not drawn)	7	-39	-4	3304	0.5	10	12
CC(C)CCC(C)NC(=O)C1CCN(S(=O)(=O)/C=C/c2ccccc2)CC1 (stereo not drawn)	18	-26	-2	4004	3.4	0	-6
O=C(Nc1cc2c(cc1C(=O)O)OCCCO2)c1ccc(C(F)(F)F)cc1	-4	-33	-9	5716	2.7	5	13
COc1ccc(N(CC(O)CN2C(=O)NC(C)(C)C2=O)S(=O)(=O)c2ccc(C)cc2)cc1 (stereo not drawn)	4	-11	-1	23111*	1.0	-5	8
CCCCS/C(N)=N/N=C/c1ccccc1O	.	-90	-15	4187	.	.	.
